StopGo FLuc: Primary qHTS Assay for Foot and Mouth Disease Virus Antivirals against NCGC Sytravon and CBC Compound Libraries: Firefly Luciferase Signal | HEK cells with a luciferase reporter of 2A StopGo recoding | Potency, µM (highest dose often 57.5 µM), inactives show at the top dose signal change, negative = less light | AID 1745856, 2022 | 0.23% of 120,000 active; active = well fitted falling curve with a large enough effect; inconclusive = small, poorly fitted or top-dose-only effect; inactive = no such curve, though single readings can be large or run the other way; note: nearly all actives have a fitted effect of over 60% in size; overnight with compound
2A Renilla: Primary qHTS Assay for Foot and Mouth Disease Virus Antivirals against NCGC Sytravon and CBC Compound Libraries: Renilla Luciferase Signal; HEK cells with a luciferase reporter of 2A StopGo recoding; Potency, µM (series often up to 57.5 µM), for inactives: top-dose signal change, negative = less light; 0.32% of 120,000 active; AID 1745857, 2022; active means well fitted falling curve with a large enough effect; inconclusive means small, poorly fitted or top-dose-only effect; inactive means no such curve, though single readings can be large or run the other way; note: nearly all actives have a fitted effect of over 55% in size; overnight with compound
* hit, by the source's call; ? = inconclusive; & = joins results of further samples; [ ] = dose if it differs, or a comment. % is set by controls: 0 for no effect and ±100 for the full control effect; potency is the fitted concentration of half-maximal effect.

SMILES | StopGo FLuc | 2A Renilla
CCOc1ccc(C(=O)N2CCC(c3nnc(-c4ccccc4OC)o3)CC2)cc1 | 62%[activator] | 0%
CCc1cccc(NC(=O)COC(=O)c2ccc(C3Nc4ccccc4S(=O)(=O)N3)cc2)c1 (centres undefined) | 0% | -7%
CC(C)(C)c1ccc(C(=O)Nc2c(N3CCCC3)c3ccccc3oc2=O)cc1 | 32%[activator] | 12%
Oc1ccc(/C=C/c2nc(-c3ccc(F)cc3)cs2)cc1 | 169%[activator] | -7%
Cn1c(=O)c2[nH]c(CN3CCC(Cc4ccccc4)CC3)nc2n(C)c1=O | -11% | -20%
Cc1cccc(Cn2c(NC3CCCCC3)nc3c2c(=O)[nH]c(=O)n3C)c1 | 7% | 5%
CCn1cc(C(=O)NCc2ccccc2)c(=O)c2cc(S(=O)(=O)N3CCCCCC3)ccc21 | -9% | 4%
CN(C)C(=O)CO | 18% | 13%
COc1cccc(OCCn2c(-c3ccc(Cl)cc3)nc3ccccc3c2=O)c1 | -19% | -14%
Cc1ccc(NC(=O)C(C#N)C(=O)c2ccc(C(C)(C)C)cc2)cc1 (centres undefined) | 14% | 6%
Cc1cccc(C(=O)N(Cc2ccccc2F)C2CCS(=O)(=O)C2)c1 (centres undefined) | -9% | -5%
COc1ccc(OCC(=O)N2CCN(Cc3ccc(SC)cc3)CC2)cc1 | ? | -14%
CCC(C)NC(=O)CSc1nc2n[nH]c(C)c2c(=N)n1-c1cc(Cl)ccc1C (centres undefined) | -2% | 42%[activator]
Cc1ccc(Cl)cc1N1CCN(C(=O)c2ccc3c(c2)N(Cc2ccccc2F)C(=O)c2ccccc2S3=O)CC1 (centres undefined) | -13% | -6%
CC(Sc1n[nH]c(=O)n1C1CC1)C(=O)c1ccc(Br)cc1 (centres undefined) | -6% | -11%
CCN(CC)S(=O)(=O)c1ccc2c(c1)N(CC(=O)Nc1c(C)cc(C)cc1C)C(=O)CS2 | -20% | 25%
COC(=O)CC1Oc2ccc(F)cc2-n2cc(-c3ccc(C)cc3)nc21 (centres undefined) | 9%&24% | 16%&19%
CS(=O)(=O)N1CCCC(C(=O)NCCc2ccccc2)C1 (centres undefined) | 0% | -9%
O=C(COc1ccc(S(=O)(=O)NC2CCCC2)cc1)NCc1ccccn1 | -1% | 149%[activator]
Cc1ccccc1-n1c(SC(C)C(=O)c2ccc(Br)cc2)nnc1N1CCOCC1 (centres undefined) | -6% | 73%[activator]
NNC1CCCC1O (centres undefined) | 35%[activator] | 7%
O=C(Nc1ccc(Cl)cc1Cl)c1cc(=O)[nH]c2ccc(S(=O)(=O)N3CCOCC3)cc12 | -12% | -5%
CC(C)OCCCn1c(=O)c2ccccc2n2c(-c3ccccc3F)nnc12 | -26% | 2%
O=C(NC1CCCCC1)c1ccc(Cn2c(SCc3ccccc3F)nc3cccnc32)cc1 | 1% | ?
COc1cc(C2C(C(=O)Nc3ccccc3C)=C(C)Nc3ncnn32)ccc1OCC(N)=O (centres undefined) | -14% | -15%
SMILES | StopGo FLuc | 2A Renilla
c1ccc(-c2nn3c(Cn4cnc5ccccc54)nnc3s2)cc1 | 0% | 16%
COCc1cc(C)nc2sc3c(c12)NC(c1ccccc1C(=O)O)N(c1ccc(OC)cc1)C3=O (centres undefined) | 58%[activator] | 24%
CCOC(=O)c1ccc(NC(=O)CCn2c(=O)oc3ccccc32)cc1 | 0% | 7%
Cc1ccc(C)c(OCCn2c(C3CC(=O)N(Cc4ccc(F)cc4)C3)nc3ccccc32)c1 (centres undefined) | -18% | 35%[activator]
Cc1ccc2[nH]cc(CCNC(=O)c3ccc(F)c(F)c3)c2c1 | -7% | -5%
COc1ccc(C2(c3ccc(OC)cc3)C=Cc3c(ccc4cc(OC)ccc34)O2)cc1 | 0% | 4%
CN1CCN(C(C(=O)O)c2c[nH]c3ccc(NC(=O)c4ccccc4)cc23)CC1 (centres undefined) | 19% | -5%
CC(NC(=O)c1ccc(O)c(Cl)c1)c1ccccc1F (centres undefined) | -1% | 7%
CC(C)c1cccc(C(C)C)c1NS(=O)(=O)c1cccs1 | 9% | 65%[activator]
O=C(NCCc1ccc(Cl)cc1)C1COc2ccccc2C1 (centres undefined) | 41% | -6%
O=C(CCS(=O)(=O)c1ccc2c(c1)CCN2C(=O)C1CC1)NC1CCCCCC1 | 9% | -5%
CCCOc1ccc(-c2csc(-c3ccc(Cl)cc3)n2)cc1 | 3% | 9%
CSCCc1nc(SCC(=O)Nc2ccc(C)cc2)[nH]c1C | 28% | 3%
Cn1c(=O)c2c(ncn2CC(=O)N2N=C(c3ccc(Cl)cc3)CC2c2ccco2)n(C)c1=O (centres undefined) | -8% | -4%
CCOC(=O)c1noc2nc(C)n(Cc3ccc([N+](=O)[O-])cc3)c(=O)c12 | -13% | -11%
CC(C)C[C@H]1CCC[C@H](CC(C)C)[N+]1(C)C | 3% | 7%
CCS(=O)(=O)N1CCC(NC(=O)c2ccccc2C(=O)c2ccc(C)cc2)CC1 | ? | ?
Cc1ccc(C)c(C(=O)CSc2nc3cc(C(=O)NC4CCCC4)ccc3c(=O)n2CC2CCCO2)c1 (centres undefined) | -19% | -6%
O=C(Nc1ccccc1Cl)c1ccccc1-c1ccccc1 | 0% | 95%[activator]
COc1cccc(OC)c1C(=O)Nc1cc(C)c(O)c(-c2nc3ccccc3o2)c1 | 15% | 9%
COc1ccc(NC(=O)C2CCC(CNS(=O)(=O)c3cccs3)CC2)cc1OC (centres undefined) | 0% | 8%
O=C(NCc1ccccc1F)C1CCCN(C(=O)N2CCOc3ccccc32)C1 (centres undefined) | 5% | 28%
Cc1cc2[nH]c(C(=O)O)cc2c2ccccc12 | 0% | 0%
CCCCN(Cc1ccccc1)c1ccc(NS(=O)(=O)c2cc(C)cc(C)c2)cc1C(=O)O | 11% | 99%[activator]
CCCCNC(=O)c1ccc2c(c1)NC(=O)C(CS(=O)(=O)Cc1ccc(F)cc1Cl)N2 (centres undefined) | 12% | -8%

Reprinted at random: 2 compounds from above, in no set order.
SMILES | StopGo FLuc | 2A Renilla
CSCCc1nc(SCC(=O)Nc2ccc(C)cc2)[nH]c1C | 28% | 3%
Cc1ccc(C)c(OCCn2c(C3CC(=O)N(Cc4ccc(F)cc4)C3)nc3ccccc32)c1 (centres undefined) | -18% | 35%[activator]

Further records
SMILES | StopGo FLuc | 2A Renilla
CCC(C)NC(=O)CSc1nc2c(sc3ccccc32)c(=O)n1Cc1ccccc1Cl (centres undefined) | -19% | -6%
Cc1nnc(CSc2nnc(Nc3cccc(C)c3C)s2)o1 | 36%[activator] | 8%
COc1ccc(Cn2c(=O)[nH]c3cc(C(=O)N4CCN(c5cc(Cl)ccc5C)CC4)ccc3c2=O)cc1 | -1% | 0%
Cc1cccc(OCC(=O)Nc2ccc3nc(Nc4cccc(C(F)(F)F)c4)cc(C)c3c2)c1 | -12% | -18%
CC12CCC(C(=O)Nc3ccccc3)(CC1=O)C2(C)C (centres undefined) | 9% | 11%
O=C(COc1ncnc2c(Cl)cc(Cl)cc12)Nc1ccc(F)c(Cl)c1 | 1% | -10%
Cc1ccc(-c2cc(C(=O)N(Cc3ccc(F)cc3)Cc3ccco3)no2)cc1 | 37%[activator] | 23%
COC(=O)c1nnn(CC(=O)Nc2ccc(Br)cc2F)c1C(=O)OC | -15% | -5%
C(=N\Nc1ccccc1)/c1cc(/C=N/Nc2ccccc2)cc(/C=N/Nc2ccccc2)c1 | 89%[activator] | 9%
CCCn1c(=O)[nH]c(=O)c2c3c(cnc21)C(=O)CC(c1ccco1)C3 (centres undefined) | -6% | -8%
COc1ccccc1CNC(=O)C(NS(=O)(=O)c1ccc2c(c1)CCN2C(C)=O)C(C)C (centres undefined) | -19% | -6%
CCOc1ccc(CN(CCc2ccc3c(c2)OCO3)Cc2cc(OC)c(OC)cc2OC)cc1 | -11% | -5%
COc1ccc(-c2nc3ccccc3c(=O)n2CCN2CCOCC2)cc1 | 38%[activator] | 13%
CCc1ccc(CNC(=O)c2ccc(CSc3nc4ccncc4n3Cc3ccccc3)cc2)cc1 | 9% | -13%
Cc1c(-c2cccc(Cl)c2)nc2ccccc2c1C(=O)NC1CCCCC1C (centres undefined) | 14% | 14%
CNC(=O)c1ccc(CSc2nc3cccnc3n2Cc2cccc(F)c2)cc1 | 3% | 42%[activator]
CCCCc1c(C)[nH]n(-c2nc(C)c(C(=O)Nc3ccc(C)cc3)s2)c1=O | 39%[activator] | -2%
CCn1c(N2CCN(Cc3ccc(F)cc3)CC2)nc2c1c(=O)[nH]c(=O)n2C | 8% | 2%
Cc1ccc(Cc2nc3ccccc3nc2SCC(=O)N2CCN(c3ccc(F)cc3)CC2)cc1 | -24% | 0%
COc1cc([C@@H]2CC(=O)C3=C(C2)Nc2[nH][nH]c(=O)c2[C@H]3c2ccc(N(C)C)cc2)cc(OC)c1OC | 4% | -7%
COc1ccc(NC(=O)c2ncoc2-c2ccc(OC)c(OC)c2)cc1OC | 46%[activator] | 37%[activator]
Cc1ccc(CNC(=O)CN(c2ccc(Cl)cc2Cl)S(=O)(=O)c2ccccc2)cc1 | -23% | 78%[activator]
COc1ccc(CCN2C(=O)CN(C3CCCCCC3)C(=O)C2c2ccc(C)cc2)cc1OC (centres undefined) | -13% | 35%[activator]
COC(=O)CN1C(=O)CSc2ccc(S(=O)(=O)Nc3cccc(OC)c3)cc21 | -6% | 181%[activator]
Cc1c(Cl)cccc1NC(=O)NCC1CCN(CCc2ccccc2)C1 (centres undefined) | -19% | -7%

Rewritten with two lines to a compound: seven of the compounds above.
Screens in order – StopGo FLuc	2A Renilla
Cc1ccc(Cc2nc3ccccc3nc2SCC(=O)N2CCN(c3ccc(F)cc3)CC2)cc1
→ -24%	0%
COc1cc([C@@H]2CC(=O)C3=C(C2)Nc2[nH][nH]c(=O)c2[C@H]3c2ccc(N(C)C)cc2)cc(OC)c1OC
→ 4%	-7%
COc1ccc(NC(=O)c2ncoc2-c2ccc(OC)c(OC)c2)cc1OC
→ 46%[activator]	37%[activator]
Cc1ccc(CNC(=O)CN(c2ccc(Cl)cc2Cl)S(=O)(=O)c2ccccc2)cc1
→ -23%	78%[activator]
COc1ccc(CCN2C(=O)CN(C3CCCCCC3)C(=O)C2c2ccc(C)cc2)cc1OC (centres undefined)
→ -13%	35%[activator]
COC(=O)CN1C(=O)CSc2ccc(S(=O)(=O)Nc3cccc(OC)c3)cc21
→ -6%	181%[activator]
Cc1c(Cl)cccc1NC(=O)NCC1CCN(CCc2ccccc2)C1 (centres undefined)
→ -19%	-7%

Further structures follow:
SMILES | StopGo FLuc | 2A Renilla
CC(Oc1ccc(C(C)C)cc1)C(=O)Nc1ccc(-n2cnnn2)cc1 (centres undefined) | 0% | 26%
C#CCn1c(C2CC(=O)N(c3ccc(OCC)cc3)C2)nc2ccccc21 (centres undefined) | 15% | 51%[activator]
Cc1[nH]c(SCC(=O)NCCc2ccccc2F)nc1Cc1ccccc1 | 21% | 14%
Cc1cccc(NC(=O)CSc2nccn2Cc2ccc(F)cc2)c1C | 1% | 9%
CC(=O)N1c2ccccc2C(C)(c2ccc(C)cc2)CC1(C)C (centres undefined) | 8% | 4%
Cc1ccc(NC(=O)C2CCCCC2)c(C)c1 | 28% | -7%[1.06 µM]
O=C(CCCCCCCC(=O)Nc1ccc(C(=O)c2ccccc2)cc1)Nc1ccc(C(=O)c2ccccc2)cc1 | 102%[activator] | 8%
O=C(Cn1nc(N2CCCCC2)c2ccccc2c1=O)Nc1ccc(Cl)cc1 | 7% | 1%
O=C(c1cc(=O)c2cc(Cl)ccc2o1)N1CCN(Cc2ccccc2)CC1 | 4% | -4%
O=C1c2cccc3cccc(c23)N1S(=O)(=O)c1cccs1 | -3% | -21%
O=C(Cn1ccccc1=O)Nc1ccc(Br)cc1Br | 0% | 22%
CC(=O)c1ccc(NC(=O)CSc2nc(N3CCOCC3)c3c(c2C#N)CC(C)(C)OC3)cc1 | 0% | 6%
O=C(O)CN1CCCC1 | -10% | 1%
Cc1ccccc1CSc1nc2c([nH]c3ccccc32)c(=O)n1C | -17% | 7%
Cc1ccc(C2=Nc3ccccc3N(CC(=O)Nc3ccccc3F)C(=O)C2)cc1C | 95%[activator] | 21%
CCOc1ccc(-c2cc3c(=O)n(Cc4nc(-c5ccccc5OCC)oc4C)ccn3n2)cc1Cl | ? | -9%
COc1cc2ccccc2cc1C(=O)Nc1ccc2oc(-c3ccc(Cl)cc3)nc2c1 | 26% | 4%
COc1ccc(Nc2ncc(C(=O)N3CCN(c4cccc(Cl)c4)CC3)c3ccccc23)cc1 | 15% | 18%
Cc1ccc(NC(=O)Cn2c(=O)n(Cc3ccc4c(c3)OCO4)c(=O)c3ccc(C(=O)NC4CCCCC4)cc32)c(C)c1 | -7% | -3%
COc1cc(Cl)c(C)cc1NC(=O)c1cnn(-c2ccc(C)cc2)c1-n1cccc1 | -14% | -9%
COc1ccc(N2C(=O)CCC2(C#N)c2ccc(Br)cc2)cc1 (centres undefined) | -8% | -14%
CC(C)c1ccc(NC(=O)c2cnc3sc(N4CCOCC4)nn3c2=O)cc1 | 14% | -30%
COc1cccc(C(=O)c2sc3nc(-c4ccccc4)cc(C(F)(F)F)c3c2N)c1 | 1% | -3%
CN1CCN(c2oc(-c3ccco3)nc2C#N)CC1 | 20% | 6%
O=C(Nc1ccccc1SC1CCCC1)C1CCCC1 | 0% | 16%

Not all compounds are listed; the hit share may differ from the screen's.
